MLL AF4-AF9 inh – inhibitors of human MLL-AF4/AF9 interaction; P42568; inhibition, % at 10 µM; AlphaScreen, biotin-AF4 peptide binding to FLAG-AF9; 0.47% of 350,000 active;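 active = every replicate reaching a set inhibition limit, whatever the replicate mean, cut at about 25% in these data; inconclusive = mean inhibition reaches that limit but some replicates miss it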;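 note: 0% = plate neutral control median and 100% = total signal loss; the record names both 10 and 1 µM as test concentration; the first replicate is given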
Target sequence (P42568 whole entry, looked up): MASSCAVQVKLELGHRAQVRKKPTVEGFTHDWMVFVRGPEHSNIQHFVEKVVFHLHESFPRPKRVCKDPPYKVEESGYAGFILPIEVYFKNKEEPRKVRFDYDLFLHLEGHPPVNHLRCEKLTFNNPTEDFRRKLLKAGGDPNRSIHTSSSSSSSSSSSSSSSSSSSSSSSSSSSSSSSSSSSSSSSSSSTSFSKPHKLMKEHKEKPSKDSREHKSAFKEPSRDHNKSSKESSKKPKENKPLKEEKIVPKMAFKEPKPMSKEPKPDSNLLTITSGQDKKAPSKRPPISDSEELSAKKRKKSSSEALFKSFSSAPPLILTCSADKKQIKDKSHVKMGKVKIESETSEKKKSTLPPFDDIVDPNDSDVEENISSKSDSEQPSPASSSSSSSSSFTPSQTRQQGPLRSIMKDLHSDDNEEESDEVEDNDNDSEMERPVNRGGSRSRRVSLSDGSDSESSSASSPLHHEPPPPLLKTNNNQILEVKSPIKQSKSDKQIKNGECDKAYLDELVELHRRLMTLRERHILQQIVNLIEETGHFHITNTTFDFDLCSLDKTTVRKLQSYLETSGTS
LANA-H2B inh – blocks KSHV LANA binding to histone H2A/H2B | Q9QR71 | cell-free LANA-H2A/H2B peptide, fluorescence polarization | inhibition, % (no concentration beside the values) | 0.6% of 320,000 active; in the data active = inhibition mostly above about 10%, no sharp cut-off; inactive = mostly below about 6.7%;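 note: stock transfer was 7.5 nL into about 10 µL; 0% = median of vehicle wells and 100% = median of positive control wells; one replicate is shown; the record names a cut of 25% in any replicate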
Beta cell apopt – blocks beta cell apoptosis; INS-1E cytokine-induced death, ATP luminescence, 48 h; percent of positive-control rescue, neutral wells zero; protection from apoptosis, % (test concentration not listed); 0.8% of 300,000 active;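 active = all replicates at 75% or more, or half of them and the mean; inconclusive = half reach 75% but not the mean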;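 note: 0% = cytokine-treated negative control wells and 100% = positive control rescue; higher means more ATP so stronger rescue from cytokine killing; wells of about 40 µL received 100 nL stock; the first replicate is given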
A1 inh – inhibitors of the anti-apoptotic protein A1, read as caspase activation; 0.066% of 330,000 active; caspase activation, % (concentration not given with the values); AID 2462; MEF A1-2A-BIM cells, Caspase-Glo 3/7 luminescence, 3 h; percent of clofoctol response, vehicle zero;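 active = over half of replicate activation scores above 10%, or exactly half above 10 with the replicate mean above 10; inconclusive = replicate mean below 10 yet half the replicates above 10; inactive = over half of replicates below 10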;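 note: wells of about 30 µL received 50 nL stock; many hits fall short of the cut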
RanGTP-Impb inh – disruptors of Ran-importin-beta complex formation – biochemical, FRET, CFP-Ran, YFP-importin-beta, homogeneous, primary screen; cell-free CFP-Ran/YFP-importin-beta FRET ratio; inhibition, % (concentration not given with the values); 1.1% of 300,000 active; AID 2216;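 active = most replicates above 15%; inconclusive = exactly half above 15%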;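 note: 0% = DMSO wells and 100% = Ran loaded with GDP instead of GTP; wells of about 40 µL received 100 nL stock; the first replicate is given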
T cruzi repl – T. cruzi replication inhibition. T. cruzi beta-gal in NIH3T3, luminescence, 90 h. inhibition, % (concentration not given with the values). 1.4% of 300,000 active. AID 1885;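 active = mean inhibition across valid replicates above about 55%, limit read from the data; inconclusive = mean below that limit but half or more replicates reach it; inactive = mean below it, under half of replicates reach it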;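 note: signal also drops with host cell toxicity which is not excluded here; 0% = plate median of DMSO wells and 100% = zero luminescence signal; higher percent means less beta-gal luminescence so fewer parasites; stock transfer was 50 nL into about 50 µL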
Calb FLC – C. albicans growth modulation with fluconazole; C. albicans CaCi-2 (fluconazole-resistant clinical isolate) + fluconazole, Alamar Blue growth, 48 h; growth inhibition, % (test concentration not listed); 0.57% of 300,000 active; AID 1979;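 active = most replicates above 75%; inconclusive = exactly half above 75%; inactive = most below 75%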;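 note: all wells also contain fluconazole at 8 µg/ml as a sub-toxic cotreatment; 0% = median of DMSO wells and 100% = median of geldanamycin control wells; wells of about 8 µL received 7.5 nL stock; the first replicate is given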
Vif TR-FRET – inhibitors of Vif binding to APOBEC3G peptide, primary screen, biochemical, TR-FRET, GST-Vif 1-94, biotin-A3G peptide, dose response retest (AID 1117319); TR-FRET GST-Vif / biotin-A3G peptide binding; higher % means a stronger effect; test concentration not given here; strong numbers were not always called active; inhibition, %, or IC50 in µM where a hit was titrated; 0.57% of 260,000 active;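 active = above the screen mean plus three standard deviations and confirmed in dose response; inconclusive = results disagree or hit not tested in dose response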;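 note: Vif residues 1-94 fused to GST binding biotinylated APOBEC3G peptide 110-148; 0% = full assay without inhibitor and 100% = GST in place of GST-Vif; retest series ran down from 100 µM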
The depositor's hits bear a star; u = inconclusive; x = no result given; & = joins results of further samples.

mol	MLL AF4-AF9 inh	LANA-H2B inh	Beta cell apopt	A1 inh	RanGTP-Impb inh	T cruzi repl	Calb FLC	Vif TR-FRET
CCOc1cc(/C=C/c2nc3ccccc3s2)ccc1OCC(=O)N1CCOCC1	x	2.5	3.7	0.0	-1.1	7.0	31.4	-9.5%
CCc1cc(=O)oc2c(C)c(OC(C)C(=O)NCCCN3CCOCC3)ccc12 (stereo not drawn)	-0.5	1.6	5.2	-0.7	-0.4	-0.2	0.9	x
COc1ccc(C2=NN(C(=O)c3ccco3)C(c3ccco3)C2)cc1OC (stereo not drawn)	5.5	-1.7	-3.8	-1.3	3.9	-9.9	16.4	-2.5%
Nc1c(Cl)ncnc1N/N=C/c1ccc(O)cc1	4.0	7.9	7.5	-8.4	-0.3	-15.2	7.7	28.8%
CCOC(=O)C1(C)NC(c2ccc(OC)c(OC)c2)C2C(=O)N(CC)C(=O)C21 (stereo not drawn)	x	-3.6	-1.9	-0.9	2.2	-13.6	3.6	-2.2%
CCS(=O)(=O)CCSC1OC(COC(C)=O)C(OC(C)=O)C(OC(C)=O)C1OC(C)=O (stereo not drawn)	-0.1	-0.4	-5.5	0.3	0.2	-4.3	-2.0	11.8%
O=C(O)C1CCCCC1C(=O)Nc1ccc(S(=O)(=O)N2CCCC2)cc1 (stereo not drawn)	-1.7	3.0	1.3	0.5	3.3	0.9	23.3	x
Cc1cc2nc3n(c2cc1C)CC1CC(C(=O)NCc2ccccc2)N(C)C31 (stereo not drawn)	x	-0.4	-3.5	0.6	8.6	15.7	-4.7	x

Ordered by SMILES length (ascending): some entries from above.
mol	MLL AF4-AF9 inh	LANA-H2B inh	Beta cell apopt	A1 inh	RanGTP-Impb inh	T cruzi repl	Calb FLC	Vif TR-FRET
Nc1c(Cl)ncnc1N/N=C/c1ccc(O)cc1	4.0	7.9	7.5	-8.4	-0.3	-15.2	7.7	28.8%
Cc1cc2nc3n(c2cc1C)CC1CC(C(=O)NCc2ccccc2)N(C)C31 (stereo not drawn)	x	-0.4	-3.5	0.6	8.6	15.7	-4.7	x
CCOC(=O)C1(C)NC(c2ccc(OC)c(OC)c2)C2C(=O)N(CC)C(=O)C21 (stereo not drawn)	x	-3.6	-1.9	-0.9	2.2	-13.6	3.6	-2.2%

(listing goes on)
mol	MLL AF4-AF9 inh	LANA-H2B inh	Beta cell apopt	A1 inh	RanGTP-Impb inh	T cruzi repl	Calb FLC	Vif TR-FRET
O=C(N[C@@H](Cc1ccccc1)C(=O)N1CCN(S(=O)(=O)c2ccccc2F)CC1)c1ccco1	1.7	7.1	-9.2	-0.3	x	x	x	4.2%
CC1=C(C(=O)Nc2ccccc2)C(c2ccco2)n2ncnc2N1 (stereo not drawn)	6.4	-3.7	-4.4	-0.9	4.9	11.0	38.0	3.1%
CC(C)c1ccc(NC(=O)Cn2cccc2C2=NC(c3ccccc3)CO2)cc1 (stereo not drawn)	x	-2.0	1.3	0.3	3.2	6.1	-9.4	x
COC(=O)CSc1nc(-c2ccccc2)c2c(c1C#N)CCCC2	x	-9.6	0.5	0.4	2.3	11.2	6.5	-0.7%
Cc1csc(SCC(=O)Nc2cc(C(N)=O)cc(C(N)=O)c2)n1	0.3	-2.3	5.4	-0.8	x	x	x	-11.2%
Cc1ccc(/C=C/C(=O)NCc2ccc(S(N)(=O)=O)cc2)o1	-9.8	x	x	x	-1.1	-18.5	20.5	0.0%
COc1ccc(N/C(C)=C/C(=S)Nc2ccccc2)cc1	x	0.9	-2.9	-0.9	0.1	-0.6	-35.1	u
CCCCCN(C(=O)COC(=O)c1ccc(Br)o1)c1c(N)n(CCCC)c(=O)[nH]c1=O	x	-1.2	-5.2	-0.4	5.1	-20.1	u	17.5%
CCCn1c(SCC(=O)Nc2ccc(OC)cc2[N+](=O)[O-])n[nH]c1=O	-3.1	-0.6	-4.6	0.7	1.1	-5.6	5.7	5.5%
CCN(C(=O)COC(=O)c1ccc(OC)c(S(=O)(=O)N(C)Cc2ccccc2)c1)C1CCS(=O)(=O)C1 (stereo not drawn)	-0.5	2.3	-3.8	-0.3	2.6	-2.3	2.2	3.7%
COC(=O)c1ccc(COc2ccccc2[N+](=O)[O-])o1	x	-7.0	2.2	0.0	3.2	2.2	u	9.6%
CCOc1ccc(/C=N/n2c(SC)nnc(C(C)(C)C)c2=O)cc1	x	2.9	2.1	0.9	3.7	3.5	-22.9	-3.5%
COc1ccc(NS(=O)(=O)c2ccc(O)c([N+](=O)[O-])c2)cc1S(=O)(=O)N1CCCCC1	-4.4	-2.3	-1.3	0.8	x	x	x	9.3%
CC(C)(C)NC(=O)CN(C(=O)c1csnn1)c1ccccc1-c1ccccc1	-2.6	-0.4	0.9	0.3	0.6	-8.7	19.9	0.6%
O=C(Nc1nonc1-c1ccc(Cl)cc1)c1ccccc1	0.2	2.4	-6.4	0.5	-1.0	-15.4	-28.9	6.3%
Cc1cc(C)c(C(=O)N2CCCC(N3CCN(c4ccc(F)cc4)CC3)C2)o1 (stereo not drawn)	-0.9	2.2	1.3	0.6	2.9	22.3	-1.5	x
O=C(c1cccc(Cl)c1Cl)N1CCN(c2ccccn2)CC1	x	2.6	2.1	2.5	2.5	-24.2	-1.2	-5.4%
COCCn1nnnc1CN1CCC(NC(=O)c2ccc(Br)cc2)CC1	x	-5.8	-10.2	0.3	3.5	-7.3	8.7	12.6%
CC(=O)C1=C(O)C(=O)N(CC(=O)O)C1c1ccccc1Cl (stereo not drawn)	-9.9	7.4	-3.7	-1.1	1.8	-9.9	-5.8	0.2%
COc1ccccc1-c1cc(C(=O)N/N=C\c2cnn(C)c2C)c2ccccc2n1	2.4	1.8	6.6	-0.2	-0.9	9.3	38.7	4.0%
Cc1nc(N2CCC(C)CC2)c(C#N)c(C)c1[N+](=O)[O-]	-4.0	-2.9	-0.3	-0.7	1.0	-1.5	2.3	3.5%
O=C(CNc1cc(S(=O)(=O)N2CCOCC2)ccc1N1CCCC1)N1CCc2ccccc21	1.9	1.4	-5.7	-0.5	-0.5	23.8	8.0	-1.6%
CCN(C(=O)CSc1nc2c(cnn2-c2ccccc2)c(=O)[nH]1)C1CCS(=O)(=O)C1 (stereo not drawn)	-1.0	-5.5	2.0	2.6	-3.0	10.6	17.3	8.8%
CCN(CC)c1ncnc2c1cnn2Cc1ccc(C)cc1	4.6	3.6	-4.4	0.8	-0.5	2.8	-0.4	-5.6%
O=C1CC(c2cccc(Br)c2)c2cc3c(cc2N1)CCC3 (stereo not drawn)	x	-3.1	x	-0.8	5.5	28.2	7.8	1.3%
COc1ccc2[nH]c(C)c(C(=O)CN3CC(C)OC(C)C3)c2c1 (stereo not drawn)	x	3.2	0.7	1.6	4.3	-0.6	-4.9	4.5%
COc1ccc(NC(=O)COc2ccc(C)nc2[N+](=O)[O-])cc1S(N)(=O)=O	-2.1	-3.2	-2.6	-0.2	x	x	x	11.1%
CC(C)Oc1ccc(C(=O)Nc2c3c(nn2-c2ccccc2)CS(=O)(=O)C3)cc1	0.1	-0.8	0.9	-1.5	-1.4	-1.4	10.4	x
CCCN1CCN(CCCNC(=S)Nc2ccc(OC)cc2)CC1	x	0.0	-1.5	-0.4	2.4	12.1	1.8	2.1%
CN(C)CCCNS(=O)(=O)c1ccc(-n2nnc3ccccc32)c([N+](=O)[O-])c1	-1.8	0.7	-1.0	0.0	-1.7	23.2	-1.8	x
O=Cc1c(Cl)nc2ccccn12	-1.3	2.5	-1.6	0.4	-0.4	-14.4	0.8	-2.7%
O=C(O)c1cc(N/N=C/c2cccc3ccccc23)ccc1Cl	0.6	12.5	-3.6	-1.2	u	-9.6	-5.5	x
CCCCCCN=C1CC(C)(C)CC(=O)/C1=C(/O)CCC	-1.3	-1.5	0.4	0.1	2.8	15.6	3.3	4.2%
COc1ccc(C(=O)NCC(=O)N/N=C/c2cccnc2)cc1OC	1.5	-1.0	0.2	0.8	2.3	-3.1	12.8	x
COc1ccc(N2CCN(C(CNC(=O)C(=O)NCC(OC)OC)c3ccco3)CC2)cc1 (stereo not drawn)	0.9	-1.0	-3.0	0.5	0.5	-7.0	11.5	4.8%
Cn1nc(C(F)(F)F)c(CNC(=O)C(C)(C)CCl)c1N1CCOCC1	-3.4	3.8	-10.8	1.6	0.2	13.7	-0.4	-5.8%
CC(=O)Nc1c(O)c2cccc3c2n(c1=O)CCC3	0.0	-1.5	3.3	0.7	0.5	-9.0	-3.2	x
CCCCOC(C)n1cc(F)c(=O)[nH]c1=O (stereo not drawn)	-6.6	1.6	-0.4	1.5	-2.7	-12.7	2.5	-6.3%
CCCc1cc(=O)[nH]c(SCC(=O)N2CCN(S(=O)(=O)c3ccccc3)CC2)n1	x	2.6	-4.7	0.5	-1.3	7.8	14.6	x
O=C(Nc1cccc(Cl)c1)c1nc[nH]c1C(=O)N1CCc2ccccc2C1	4.4	-2.5	-2.7	u	x	x	x	x
CC(=O)Nc1ccc(S(=O)(=O)n2cnc(C)c2)cc1	x	-4.3	-6.7	0.1	2.0	-8.4	9.5	31.3%
CN(C)C(=O)CCSc1nnc(-c2ccco2)o1	-2.0	6.3	-4.2	0.2	u	-14.6	-29.1	13.5%
COC(=O)c1ccc(C)c(NC(=O)CN2C(=O)c3ccccc3S2(=O)=O)c1	x	7.5	3.3	-0.7	2.6	-2.6	0.4	4.2%&4.9%
Cc1cccc(C)c1NC(=O)CSc1nnc(-c2cnccn2)n1C	-1.3	1.7	-9.1	1.0	4.3	-6.7	1.6	x
Cc1cccc(N2CC(c3nc4ccccc4n3C)CC2=O)c1C (stereo not drawn)	-3.1	-2.4	-3.0	-0.7	0.8	0.6	-0.8	-1.1%
Cc1cccc(C(=O)OCC(=O)Nc2ccc3c(c2)OCCO3)c1O	-1.3	-4.9	5.8	0.9	x	x	x	-5.8%
O=C1C(=O)N(Cc2cccs2)c2ccccc21	-0.1	0.9	-10.0	0.0	4.1	-8.2	-103.5	x
O=C(NCc1nc2ccccc2[nH]1)c1cc2ccccc2oc1=O	x	-0.7	-3.8	-0.7	2.8	-2.5	-6.7	-0.4%
